S aureus helic: blocks Staphylococcus aureus DNA helicase. AID 485395. 0.05% of 120,000 active. purified S. aureus helicase, fluorescence unwinding assay; about half of the hits fall short of the stated cut. inhibition, %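 (tested at about 80 µM)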;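 active = both duplicates at 50% or more, or one of them with a favoured structure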;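 note: 0% = mean of negative control wells and 100% = mean of positive control wells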
MgrA-DNA mod: modulators of Staphylococcus aureus MgrA DNA binding | 0.13% of 84,000 active | AID 602314 | fluorescence polarization | inhibition, %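 (about 10 µg/mL by stock and volumes)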;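 active = above 50% in either of two replicates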;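 note: 0% = protein plus DNA without compound and 100% = DNA alone without protein; higher means less MgrA bound to DNA so lower polarization; one replicate is shown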
* marks the source's active call; other numbers are inactive results; . = no result given; & = joins results of further samples. The list is partial. The share of hits here may be higher or lower than overall.

SMILES	S aureus helic	MgrA-DNA mod
CCN1/C(=C2\C(=O)N(C)C(=S)N2c2ccccc2)C=Cc2cc(C)ccc21	25	.
O=C(NCc1cccs1)c1csc(C2COc3ccccc3O2)n1 (stereo unspecified)	-19	.
N#CCCn1[nH]c(-c2ccccc2)cc1=O	16	2.3
CCCN(CCC)S(=O)(=O)c1ncn[nH]1	6	.
Cn1c(SCc2cccnc2)nnc1C1CCCN(C(=O)C2CCCO2)C1 (stereo unspecified)	6	-2.5
CC(C)c1ccc(C(=O)NCCCn2ccnc2)cc1	4	.
COc1cccc(CN(C(=S)NCc2ccccc2)c2ccc(F)c(Cl)c2)c1O	-2	1.9
O=C(NCc1ccc2c(c1)CCO2)C1CCC1	0	.
CCOC(=O)C1CCN(C(c2ccccn2)c2c(C)[nH]c3ccccc23)CC1 (stereo unspecified)	2	.
CC(C)(C)C(=O)NC(=S)Nc1ccccc1	-5	1.5
Nc1ccnc(C(F)(F)F)c1C(=O)c1ccccc1	10	-1.5
CCCC(C(=O)NC1CCCC1)N(Cc1ccccc1)C(=O)Cn1nnc(-c2ccc(C)o2)n1 (stereo unspecified)	17	0.2
CC(C)N(CCNc1nnnn1-c1ccccc1)C(C)C	9	.
O=C(O)c1ccc(S(=O)(=O)c2ccc3c(c2)C(=O)N(c2ccc(O)cc2)C3=O)cc1	-3	.
CC(Sc1nc(-c2ccccc2)cs1)C(=O)NC(N)=O (stereo unspecified)	19	.
O=C(CNCC(c1ccc(F)cc1)N1CCOCC1)NCc1ccccc1Cl (stereo unspecified)	-21	.
CCOC(=O)c1oc2c(c1C)-c1nn(CC)cc1CC2	-14	.
CC1(C)CC(=O)C(CC(=O)Nc2cc(C(F)(F)F)ccc2Cl)C(=O)C1	-17	-0.2
S=c1nc(-c2ccccc2)[nH][nH]1	3	4.3&2.5
N#Cc1ccccc1CSc1nsc(SCc2ccccc2C#N)c1C#N	-4	-1.1
O=S(=O)(c1ccc(-n2cnnn2)cc1)N1CCNCC1	-8	0.6
O=c1cc(-c2ccc3c(c2)OCCO3)oc2ccc(F)cc12	20	.
CC1CC(NS(=O)(=O)c2cc3c4c(c2)CCN4C(=O)CC3)CC(C)(C)C1 (stereo unspecified)	8	.
CC(C(=O)N(C)Cc1ccccc1)N1CCN(C/C=C/c2ccccc2)CC1 (stereo unspecified)	-8	.
CCC(NC(=O)Nc1cc(C)ccc1OC)c1ccccc1 (stereo unspecified)	12	6.8
C=CCC(NCc1ccco1)c1ccccc1 (stereo unspecified)	5	-1.7
CC(C)(C)OC(=O)N1CCC(n2nccc2N)CC1	7	0.2
COc1ccc(CNC(=O)c2oc3ccc4nc(N(C)C)sc4c3c2C)cc1	17	.
Ic1ccc(Nc2nc3nonc3nc2N/N=C\c2ccco2)cc1	0	20
COC(=O)C1C(=O)C=C(N2CCOCC2)CC1(C)C (stereo unspecified)	-6	2.0
C=CCn1c(CCNC(=O)c2ccc(OC)cc2)n[nH]c1=S	-9	2.2
Cc1ccc2c(CSc3nncs3)cc(=O)oc2c1	-5	.
O=C(O)CCc1nnc2ccc(NCc3ccco3)nn12	3	.
O=C(Nc1nc(-c2ccc(F)cc2)cs1)c1ccc(N2C(=O)CCC2=O)cc1	18	.
O=C(O)c1nn(CC(=O)N2CCc3ccccc32)c(=O)c2ccccc12	7	.
O=C(Cn1nnc(-c2cccc(F)c2)n1)N1CCCC1c1ccc2c(c1)OCCO2 (stereo unspecified)	0	.
COC(=O)[C@@H](NS(=O)(=O)c1ccc(Cl)c(Cl)c1)C(C)C	6	.
CC1CCCN(CC(=O)Nc2ccc(C(=O)O)cc2)C1 (stereo unspecified)	2	-1.9
O=C1CCN(c2cc(C(F)(F)F)nc3cc(Cl)cc(Cl)c23)CC1	.	-2.6
CCOC(=O)C(C(=O)Nc1ccc(Br)cc1)C1CCCCC1 (stereo unspecified)	10	1.4
O=C1CC(=O)N2C=CC=CC2=N1	.	4.0
Cc1ccc(S(=O)(=O)CCC(=O)Nc2ccc(C)c(C)c2)cc1	-5	-2.0
O=C(NCc1ccc(-c2csnn2)cc1)c1ccccc1C(F)(F)F	.	-1.7
O=C(COC(=O)/C=C/c1ccco1)Nc1cccc(C(F)(F)F)c1	7	.
Cn1c(=O)c2ccccc2n(Cc2ccc(Cl)cc2)c1=O	3	-0.6
OC(c1nc2ccccc2o1)(c1c[nH]c2ccccc12)C(F)(F)F (stereo unspecified)	42	.
COC(=O)C1=CN(c2cccc(C(F)(F)F)c2)C=C(C(=O)OC)C1c1ccsc1	3	1.8
O=C1c2ccccc2C(=O)C1C(c1ccco1)C1C(=O)c2ccccc2C1=O	9	0.2
O=C(c1ccccc1)N1CCN(c2ccc(NCC3CCCO3)nn2)CC1 (stereo unspecified)	13	.
CC1CCCCC1NC(=O)COc1ccc2c(c1)C(=O)CC(C)(C)O2 (stereo unspecified)	16	.
CCNC(=O)CCCc1nc(-c2ccccc2)no1	-20	.
O=C(NC(O)C(=O)c1cccs1)c1cccnc1 (stereo unspecified)	7	0.2
O=C(CN1C(=O)C2CC=CCC2C1=O)OCC(=O)c1c[nH]c2ccccc12 (stereo unspecified)	-10	.
C=C1C(C(=O)NCc2ccco2)C1C(=O)NCc1ccco1 (stereo unspecified)	-3	43
Brc1cccc(-c2nnc3sc(CNCc4ccco4)cn23)c1	15	.
COc1cc(C(=O)N/N=C/c2ccc(OC(=O)N3CCOCC3)cc2)cc(OC)c1OC	9	.
CS(=O)(=O)N1Cc2ccccc2CC1C(=O)OCC(=O)N1CC(=O)Nc2ccccc21 (stereo unspecified)	-13	.
COc1ccc(Cl)cc1NC(=O)Cn1nc(C(F)(F)F)cc1C	2	1.1
O/N=C/c1cn(CC(O)Cn2cnc3ccccc32)c2ccccc12 (stereo unspecified)	7	.
Nc1sc2ccccc2[n+]1C(=O)OCc1ccccc1	1	-1.9
Next entries follow:
SMILES	S aureus helic	MgrA-DNA mod
O=C(COn1nnc2ccc(Cl)cc21)Nc1ccccc1	-8	.
Cc1ccccc1C(=O)N(CC#N)CC#N	-1	-2.1
COc1ccc(C(=O)O)cc1S(=O)(=O)NC(C)(C)C	5	.
CCOc1cc(/C=c2\sc3n(c2=O)C(c2ccc(OC)cc2)C(C(=O)OC)=C(C)N=3)ccc1OC(C)=O (stereo unspecified)	.	2.9
c1cncc(-c2nc(NCc3ccncc3)c3ccccc3n2)c1	-8	.
c1ccc(CSc2nn3cc(-c4ccccc4)nc3s2)cc1	-2	.
O=C1/C(=C/c2cccs2)COC/C1=C\c1cccs1	.	-0.4
CCC(c1nnc(SCC(C)C#N)n1Cc1ccccc1)N(C)C (stereo unspecified)	22	.
O=C1CCC(=O)N1CNc1ccc(C(F)(F)F)cc1	.	0.1
O=C(CC(NC(c1ccccc1)c1ccccc1)C(=O)O)c1ccc(Cl)cc1 (stereo unspecified)	6	11
N#Cc1c(NC(=O)CSc2ccccn2)oc(-c2ccccc2)c1-c1ccccc1	7	.
CCn1c2ccccc2c2nnc(NCc3ccccc3)nc21	-12	.
CCCCN(CC)C(=O)c1cc2c(C)nn(-c3ccc(Cl)cc3)c2s1	-13	.
COc1ccc(-c2nnc(SCC(=O)NC(Cc3ccccc3)C(=O)O)o2)cc1 (stereo unspecified)	20	.
CC(C)n1c(SCC(N)=O)nc2c(oc3ccccc32)c1=O	8	2.1
COc1ccc(C2NNC(=S)S2)cc1 (stereo unspecified)	-3	0.7
CCN(CCCN)Cc1ccccc1	8	.
C/C(=C\C#N)Nc1cccc(C(F)(F)F)c1	-13	-0.2
COc1ccc(C(=O)NCc2ccoc2C(=O)O)cc1	12	-3.5
O=C1CCC(=O)N1c1ccccc1N1CCOCC1	.	0.2
CCOc1ccc(C2c3c(oc4ccccc4c3=O)C(=O)N2c2ccccn2)cc1 (stereo unspecified)	2	.
CCOC(=O)c1[nH]c(C)c(C)c1O	9	.
CC(Sc1ncn(-c2ccccc2)n1)C(=O)Nc1nccs1 (stereo unspecified)	-3	-5.7
O=C(O)C1C2C=CC(CC2)C1C(=O)NCCc1ccccc1 (stereo unspecified)	8	11

One compound at a time, as listed above.
O=C(CC(NC(c1ccccc1)c1ccccc1)C(=O)O)c1ccc(Cl)cc1 (stereo unspecified) across the screens: S aureus helic: 6; MgrA-DNA mod: 11
Cc1ccc(S(=O)(=O)CCC(=O)Nc2ccc(C)c(C)c2)cc1 across the screens: S aureus helic: -5; MgrA-DNA mod: -2.0

Continued.
SMILES	S aureus helic	MgrA-DNA mod
O=C1COc2ccc(-c3csc(-n4nccc4C(F)(F)F)n3)cc2N1	-1	.
Cc1ccc(-n2c(O)c(C=NCC3CCCO3)c3ccccc3c2=O)cc1C (stereo unspecified)	3	-0.2
O=C(Cn1nnc(-c2ccc(F)cc2)n1)NC(=O)NC1CCCCC1	9	.
O=C(NC1CC1)C1C2C=CC3(O2)C1C(=O)N(Cc1ccccc1)C3C(=O)NC1CCCC1 (stereo unspecified)	2	0.5
O=C(CSc1nnc2scc(-c3ccccc3)n12)c1ccc2c(c1)OCCO2	9	1.7
O=C(Nc1ccccc1)C1COc2ccccc2O1 (stereo unspecified)	.	1.3
COc1ccc(OC)c(N(C)S(=O)(=O)c2ccc3c(c2)N(C(C)=O)CCO3)c1	1	.
CC(C)(C)C(=O)Nc1ccc(Cl)cc1-c1noc(C(C)(C)C)n1	.	-2.4
CCOc1ccc(CCNC(=O)C2CCCN(C(=O)c3cc4sccc4n3CC)C2)cc1OCC (stereo unspecified)	2	.
CCCn1c(N)c(C(=O)CN2CC(C)OC(C)C2)c(=O)[nH]c1=O (stereo unspecified)	-8	.
COc1cccc(N/C=C(\C#N)c2ccc(Cl)cc2)c1	.	-2.4
COc1ccc2oc(=O)c(-c3cn4ccccc4n3)cc2c1	-10	.
O=C(NCc1ccc(Cl)cc1)C1c2ccccc2Oc2ccccc21	-14	0.7
CCCn1c(C)cc(C(=O)COC(=O)c2nn(CCC)c(=O)c3ccccc23)c1C	-4	.
O=C(Nc1ccc2c(c1)OCCO2)Nc1nnc(N2CCCC2)s1	20	.
O=C1C=CC(=O)C(c2ccc(Br)cc2)=C1	39	39
O=C(O)CCC(=O)/C=C/c1ccccc1	.	-3.6
Cc1nn(-c2ccccc2)c2c1C1(C(=O)Nc3ccc(Br)cc31)C(C#N)=C(N)O2 (stereo unspecified)	.	3.0
Cc1ccc(Cl)cc1N1CCN(CCCNC(=O)c2cc3c(C)nc4ccccc4c3o2)CC1	-10	-1.1
CCN1C(=O)C2C(c3ccccc3C)NC(Cc3ccc(O)cc3)(C(=O)OC)C2C1=O (stereo unspecified)	18	-4.0
CN(Cc1nc2ccccc2c(=O)[nH]1)C(=O)CCC(=O)N1CCOCC1	13	.
COC(=O)/C=C1\S/C(=N\c2ccccn2)N(c2ccc(C)c(C)c2)C1=O	.	0.8
CC(=O)N1CC(NC(Cc2cnc[nH]2)C(=O)O)C(c2ccc(N(C)C)cc2)=N1 (stereo unspecified)	-3	-1.0
O=C(c1ccc(OCCN2CCCCC2)cc1)c1c(-c2ccc(O)cc2)sc2cc(O)ccc12	.	-0.7

An excerpt from above in order of SMILES length, low to high:
SMILES	S aureus helic	MgrA-DNA mod
O=C(O)CCC(=O)/C=C/c1ccccc1	.	-3.6
O=C(Nc1ccccc1)C1COc2ccccc2O1 (stereo unspecified)	.	1.3
O=C1C=CC(=O)C(c2ccc(Br)cc2)=C1	39	39
COc1cccc(N/C=C(\C#N)c2ccc(Cl)cc2)c1	.	-2.4
COc1ccc2oc(=O)c(-c3cn4ccccc4n3)cc2c1	-10	.
O=C(NCc1ccc(Cl)cc1)C1c2ccccc2Oc2ccccc21	-14	0.7
O=C(Cn1nnc(-c2ccc(F)cc2)n1)NC(=O)NC1CCCCC1	9	.
CC(C)(C)C(=O)Nc1ccc(Cl)cc1-c1noc(C(C)(C)C)n1	.	-2.4
CCCn1c(N)c(C(=O)CN2CC(C)OC(C)C2)c(=O)[nH]c1=O (stereo unspecified)	-8	.
CN(Cc1nc2ccccc2c(=O)[nH]1)C(=O)CCC(=O)N1CCOCC1	13	.
COC(=O)/C=C1\S/C(=N\c2ccccn2)N(c2ccc(C)c(C)c2)C1=O	.	0.8
CCCn1c(C)cc(C(=O)COC(=O)c2nn(CCC)c(=O)c3ccccc23)c1C	-4	.
COc1ccc(OC)c(N(C)S(=O)(=O)c2ccc3c(c2)N(C(C)=O)CCO3)c1	1	.
CCN1C(=O)C2C(c3ccccc3C)NC(Cc3ccc(O)cc3)(C(=O)OC)C2C1=O (stereo unspecified)	18	-4.0
Cc1nn(-c2ccccc2)c2c1C1(C(=O)Nc3ccc(Br)cc31)C(C#N)=C(N)O2 (stereo unspecified)	.	3.0
O=C(NC1CC1)C1C2C=CC3(O2)C1C(=O)N(Cc1ccccc1)C3C(=O)NC1CCCC1 (stereo unspecified)	2	0.5

(further entries)
SMILES	S aureus helic	MgrA-DNA mod
CC(CNC(=O)CCc1nnc2ccc(NCCCN3CCCC3=O)nn12)c1ccccc1 (stereo unspecified)	0	.
Nc1nnn2c(=O)c3cccc4cccc(c43)c12	2	4.2
Cc1[nH]c(=O)[nH]c(=O)c1S(=O)(=O)NCCOC12CC3CC(CC(C3)C1)C2	-14	0.6
Cc1cc(C)cc(NC(=O)N2CCC3(CC2)OCCO3)c1	24	.
Cn1c(=O)c2c(nc(CN3CCN(c4cccc(Cl)c4)CC3)n2CCCO)n(C)c1=O	-19	.
O=c1c(-c2ccccc2)coc2cc(O)ccc12	.	0.1
O=S(=O)(NCc1csc(-c2cccnc2)n1)c1ccc(Cl)s1	-4	.
CCN1CCN(Cc2ccc(-c3ccccc3)cc2)CC1	6	0.2
Cc1cccc(NC(=O)c2ccc(S(=O)(=O)N(C)C)cc2)n1	-5	.
CN1C(=O)c2ccc(Oc3ccc(C(C)(C)c4ccc(Oc5ccc6c(c5)C(=O)N(C)C6=O)cc4)cc3)cc2C1=O	.	-1.5
CCOc1ccccc1NC(=O)[C@@H]1CCCN1S(=O)(=O)c1ccccc1C(F)(F)F	10	.
COC(=O)c1ccc(CSc2nc(-c3ccco3)cc(C(F)(F)F)n2)o1	16	0.4
Cc1cccc(N=c2scc(-c3ccco3)n2/N=C/c2c[nH]c3ccccc23)c1C	-20	.
